Screens (PubChem)
miR-21 reporter: qHTS Assay for Modulators of miRNAs and/orActivators of miR-21. HeLa miR-21 FLuc reporter, luciferase, 48 h. 340,000 tested, under 10 active. Potency, µM (series often up to 38.3 µM), for the others: top-dose reporter change, positive = more light; active = well fitted rising curve with a large enough effect; inconclusive = small, poorly fitted or top-dose-only effect; inactive = no such curve, though single readings can be large or run the other way;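 note: % of control where 0% means no effect; miR-21 action dims this reporter so a rising signal means less miR-21 action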
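Luminescence from a firefly luciferase reporter carrying a miR-21 binding site downstream, stably expressed under a CMV promoter in HeLa cells that make miR-21 endogenously, reports miRNA modulation after 48 h compound exposure up to approximately 40uM final.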
* hit, by the source's call; ? = inconclusive. Not all compounds are listed, so the mix of outcomes need not match the whole.

canonical_smiles | miR-21 reporter
COc1ccc(C(=O)N2CC(=O)Nc3ccc(C)cc3C2c2ccccc2)c(OC)c1 (stereo not drawn) | 14.3%
Cc1ccc(-n2c(SCC(=O)Nc3cccc(Cl)c3)nc3n[nH]c(C)c3c2=N)cc1 | 15.0%
CCCc1nnc(SCc2cc(=O)c3c(C)cc(C)cc3[nH]2)n1C | -3.1%
COc1ccc(NC(=O)CC2Oc3ccc(C)cc3NC2=O)cc1Cl (stereo not drawn) | 4.1%
CSc1nn(Cc2ccccc2C)c(NC(C)=O)c1S(=O)(=O)c1ccc(C)cc1 | 8.3%
CCOC(=O)C1CCC(CN(Cc2ccccc2)S(=O)(=O)c2ccc(Cl)cc2)CC1 (stereo not drawn) | 0.9%
COc1ccc(NC(=O)CC2C(=O)N(c3cccc(OC)c3)C(=O)N2CCC2=CCCCC2)cc1 (stereo not drawn) | 26.9%
CCn1cc2nc(SCC(=O)Nc3cc(OC)cc(OC)c3)n(Cc3ccc(Cl)cc3)c(=O)c2n1 | 1.6%
Cc1ccc(/C=C/c2onc(C)c2S(=O)(=O)N2CCC(C(=O)N3CC(C)Oc4ccccc43)CC2)cc1 (stereo not drawn) | -4.1%
CCn1cc(C(=O)N2CCN(c3cc(C)ccc3C)CC2)c(=O)c2cc(S(=O)(=O)N3CCCCC3)ccc21 | 0.2%
Clc1ccc(Nc2c(-c3cccs3)nc3ccc(Cl)cn23)cc1 | -26.7%
CCOC(=O)CNC(=O)CC(c1cc(OC)c(OC)c(OC)c1)N1Cc2ccccc2C1=O (stereo not drawn) | -0.4%
COc1ccc(-c2nc3sc(CCNC(=O)C(=O)Nc4cccc(NC(C)=O)c4)c(C)n3n2)cc1 | -41.1%
Cc1ccc(CN(Cc2cccn2-c2nnc(N3CCCC3=O)s2)C(=O)Nc2ccccc2Cl)cc1 | 8.6%
O=S(=O)(c1cccc2ccccc12)N1CCN(c2ccc(Cl)c(Cl)c2)CC1 | 6.8%

Ordered by formula weight (descending): part of the list above
canonical_smiles | miR-21 reporter
CCn1cc(C(=O)N2CCN(c3cc(C)ccc3C)CC2)c(=O)c2cc(S(=O)(=O)N3CCCCC3)ccc21 | 0.2%
Cc1ccc(CN(Cc2cccn2-c2nnc(N3CCCC3=O)s2)C(=O)Nc2ccccc2Cl)cc1 | 8.6%
COc1ccc(-c2nc3sc(CCNC(=O)C(=O)Nc4cccc(NC(C)=O)c4)c(C)n3n2)cc1 | -41.1%
CCOC(=O)C1CCC(CN(Cc2ccccc2)S(=O)(=O)c2ccc(Cl)cc2)CC1 (stereo not drawn) | 0.9%
COc1ccc(C(=O)N2CC(=O)Nc3ccc(C)cc3C2c2ccccc2)c(OC)c1 (stereo not drawn) | 14.3%
COc1ccc(NC(=O)CC2Oc3ccc(C)cc3NC2=O)cc1Cl (stereo not drawn) | 4.1%
Clc1ccc(Nc2c(-c3cccs3)nc3ccc(Cl)cn23)cc1 | -26.7%

The list continues:
canonical_smiles | miR-21 reporter
CCOc1ccc(-n2nc3cc(C)c(NC(=O)c4cc(OCC)c(OCC)c(OCC)c4)cc3n2)cc1 | -5.9%
CCn1cc2c(n1)-c1c(oc(C(=O)Nc3cccc(C)c3C)c1C)CC2 | -3.4%
CCN(C(=O)Cn1nc(Cc2ccncc2)c2ccccc2c1=O)c1cccc(Cl)c1 | -12.8%
Cc1oc(-c2ccc(Cl)cc2)nc1CS(=O)CC(=O)N1CCN(c2cccc(C(F)(F)F)c2)CC1 (stereo not drawn) | 27.4%
Cc1ccc(Cl)cc1NC(=O)Nc1cccc(OCc2cc(=O)n3ccccc3n2)c1 | 5.5%
Cc1cc(C)nc(-n2nc(C)c3c2N(C)C(=O)CC3c2ccc(Cl)cc2)n1 (stereo not drawn) | 0.5%
CCc1ccccc1NC(=O)CN1C(=O)c2ccccc2Sc2ncccc21 | ?
Cc1cccc(NC(=O)c2cnc3sc(N4CCCC4)nn3c2=O)c1C | 1.0%
Cc1cccc(Cn2cc(S(=O)(=O)c3cccc(Cl)c3)c(=O)c3cc(F)c(N4CCOCC4)cc32)c1 | -9.8%
COc1ccc(-c2cn3c(n2)sc2cc(C(=O)NCCCN4CCCCCC4)ccc23)cc1 | -7.1%
CC(C)Cn1c(=O)c2ccccc2n2c(CCC(=O)Nc3ccc(F)c(F)c3)nnc12 | -1.1%
c1ccc(CN2CCN(c3ncnc4c3cnn4-c3ccccc3)CC2)cc1 | -15.3%
CCC(=O)Nc1ccc2nc3c(=O)n(C)c(=O)n(C)c3nc2c1 | 2.9%
O=C(NC1CCN(Cc2ccccc2)CC1)c1ccc(Cn2c(=O)c3ccccc3n(Cc3ccc(Cl)cc3)c2=O)cc1 | -0.9%
O=C(COc1ccc(Br)cc1Br)Nc1ccc(S(=O)(=O)Nc2ncccn2)cc1 | -14.3%
COc1cc(C(=O)Nc2nnc(CC(C)(C)C)s2)cc(OC)c1OC | 3.8%
CC(=O)c1cccc(NC(=O)N2CCC(CN3CCCCC3)CC2)c1 | -5.0%
Cc1cc(O)c(C(c2ccc(F)cc2)N2CCCCC2)c(=O)n1Cc1ccco1 (stereo not drawn) | -0.6%
CCc1ccc(C(=O)CC2(O)C(=O)N(CCc3ccccc3)c3ccc(Cl)cc32)cc1 (stereo not drawn) | ?
Cc1cc(C)c(S(=O)(=O)NCCc2cc3cc(C)c(C)cc3[nH]c2=O)c(C)c1 | -2.7%
CCC(Sc1nc2c(sc3ccccc32)c(=O)n1CCc1ccccc1)C(=O)N(CC)CC (stereo not drawn) | -18.0%
CCN(CC)c1ccc(NC(=O)CN2CCN(c3ccccc3OC)CC2)cc1 | 6.1%
O=S(=O)(NCc1ccc(F)cc1)c1ccc(N2CCCCS2(=O)=O)cc1 | 13.7%
CCCCCn1c(=O)[nH]c2cc(C(=O)N3CCN(c4cccc(C)c4)C(C)C3)ccc2c1=O (stereo not drawn) | ?
COc1ccc(C2=C(C)C(=NCCCN3CCN(c4cc(Cl)ccc4C)CC3)NS2(=O)=O)cc1 | -17.5%
CCOc1ccc(CCNC(=O)c2cnc3sc(N(CC)CC)nn3c2=O)cc1OCC | -7.0%
Cc1oc(-c2ccccc2F)nc1CS(=O)(=O)CC(=O)NCCc1ccc(Cl)cc1 | -4.3%
CCCCNC(=O)CSc1nnc(C)c2c(C)n(-c3ccccc3)nc12 | 8.3%
CCn1nc(C)c2c(-c3ccccc3)cc(=O)n(C(C)C(=O)NCCC(C)C)c21 (stereo not drawn) | -4.1%
CCC(Oc1ccccc1)C(=O)Nc1ccc2oc(-c3ccc(OC)cc3)nc2c1 (stereo not drawn) | -49.5%
Cc1ccccc1Cc1c(C)nc2nc(SCC(=O)NC(C)c3ccccc3)nn2c1C (stereo not drawn) | 10.5%
CCCN(CCC)CCCNC(=O)Cn1ncc2c3ccccc3n(Cc3ccccc3F)c2c1=O | -0.6%
COc1cc(C(CC(=O)NCc2ccccc2Cl)N2Cc3ccccc3C2=O)cc(OC)c1OC (stereo not drawn) | 1.1%
COC(=O)c1ccccc1NC(=O)CCS(=O)(=O)c1nc(-c2ccc3c(c2)OCO3)cc(C(F)(F)F)n1 | ?
Clc1cccc(-n2ncc3c(NC4CCCCCC4)ncnc32)c1 | -15.8%
COc1cccc(NC(=O)c2csnn2)c1 | -36.8%
COc1cc(C2Nc3ccccc3-c3nnc(SCc4ccc(Cl)cc4)nc3O2)ccc1OCC(=O)O (stereo not drawn) | -6.8%
O=C(CCn1nc(-c2ccc(Cl)cc2)ccc1=O)NCCc1ccccc1 | -19.9%
CC(C)Oc1ccc(C(=O)Nc2c(C(=O)Nc3cccc(F)c3)oc3ccccc23)cc1 | -20.6%
O=C(CNC(=O)c1ccc(Cl)cc1)OCc1cc(=O)n2ccsc2n1 | 0.0%
CS(=O)(=O)N1CCc2cc(C(=O)Nc3ccc(S(N)(=O)=O)cc3)ccc21 | 1.7%
Cc1oc(-c2ccccc2Cl)nc1CS(=O)(=O)CC(=O)NCc1ccc(F)cc1 | 1.3%
Cc1ccc(NC(=O)C2CCCN(S(=O)(=O)c3c(C)n[nH]c3C)C2)cc1Cl (stereo not drawn) | -7.4%
O=C(c1ccc2c(c1)N(Cc1ccccc1)C(=O)c1ccccc1S2(=O)=O)N1CCN(c2ccccn2)CC1 | 29.8%
Cc1ccc(CNc2nccn(-c3cc(C)cc(C)c3)c2=O)cc1 | -8.2%
CCC(=O)N1CCc2cc(Br)cc(S(=O)(=O)NCCc3ccc(OC)c(OC)c3)c21 | -6.3%
COCCCNC(=O)Cn1cnc2sc(C)c(S(=O)(=O)N3CCC(C)CC3)c2c1=O | 3.2%
CC1=C(C(N)=O)C(c2cccc(C)c2)n2nc(-c3ccc(Cl)cc3)nc2N1 (stereo not drawn) | 6.6%
COc1ccc(CC(=O)Nc2c(C(=O)Nc3ccccc3F)oc3ccccc23)cc1 | -3.5%
O=C(Cn1c(=O)nc(-c2ccccc2)c2ccccc21)NCCc1ccccc1 | 9.2%
COc1ccc(OC(C)c2nc3ccccc3[nH]2)cc1 (stereo not drawn) | 27.6%
CCOC(=O)c1ccc(NC(=O)CCC(=O)N2CCSc3ccccc32)cc1 | 23.0%
Cc1cccc(N2CCN(c3nc4ccccc4c4nc(-c5ccccc5)nn34)CC2)c1C | -1.1%
CN(CC(=O)Nc1cccc(Cl)c1)S(=O)(=O)c1ccc2[nH]c3c(c2c1)CCCC3 | 6.5%
CCc1ccccc1NC(=O)C1CCN(C(=O)N2CC(C)Oc3ccc(Cl)cc32)CC1 (stereo not drawn) | -20.6%
CCN1CCN(CCCNC(=O)c2cnn(-c3ccccc3Cl)c2C2CCN(C(=O)OC(C)(C)C)CC2)CC1 | -5.8%
CC(C)(C)C(=O)Nc1nc2nc(-c3ccccc3)cc(=O)n2[nH]1 | -2.1%
CCOC(=O)c1c(NC(=O)C(C)Oc2ccc(Cl)c(C)c2)sc2c1CCCC2 (stereo not drawn) | -1.2%
O=C(CN1C(=O)c2ccccc2Sc2ccc(C(=O)N3CCOCC3)cc21)Nc1ccc(Cl)cc1F | -5.4%
Cc1cccc(N2CCN(c3ncnc4onc(C)c34)CC2)c1C | 3.2%

Going on with the list.
canonical_smiles | miR-21 reporter
CCCS(=O)(=O)NCCc1sc2nc(-c3ccc(Cl)cc3)nn2c1C | 2.0%
Cc1ccc(NC(=O)c2ccc3oc(=O)c(S(=O)(=O)c4ccccc4)cc3c2)cc1C | 2.1%
O=C(Cn1c(=O)n(Cc2ccc(C(=O)NCc3ccccc3Cl)cc2)c(=O)c2ccccc21)Nc1ccc(F)cc1 | -3.6%
Cc1cc(C)cc(Nc2ncnc3c2nc2n3CCCC2)c1 | 1.5%
CC1=C(C(=O)Nc2ccccc2Br)C2(CCC(C)CC2)OC1=O (stereo not drawn) | 0.6%
Cc1ccccc1-n1c(SCC(=O)Nc2ccc(Cl)cc2Cl)nc(O)cc1=O | 7.8%
CCC(C(=O)Nc1cc(OC)ccc1OC)n1c(C)c2cnn(-c3ccccc3)c(=O)c2c1C (stereo not drawn) | 14.0%
Cn1ccc2cc(S(=O)(=O)N3CCCC(C(=O)NCc4ccccc4)C3)ccc21 (stereo not drawn) | -4.6%
CCOc1ccc(CCNC(=O)c2ccc3c(c2)c(C)c(C)n3C)cc1 | -6.9%
CC(C)NC(=O)c1cc2c(Cl)nc3ccccc3c2s1 | -18.8%
COCCn1c(CNC(=O)c2cc(OC)c(OC)c(OC)c2)nc2cccnc21 | -5.4%
COCCCNC(=O)Cn1c(=O)n(-c2cccc(C)c2)c(=O)c2c1c1cc(C)ccc1n2C | -1.8%
COc1ccc(CNC(=O)c2cc3c(=O)n(Cc4cccs4)ccc3nc2C)cc1 | 28.8%
Cc1n[nH]c(C)c1S(=O)(=O)N(CC(=O)NCc1ccccc1Cl)c1ccc(C(C)C)cc1 | 20.0%
COc1cc2c(=O)c(S(=O)(=O)c3ccccc3)cn(CC(=O)Nc3ccccc3C)c2cc1OC | -3.8%
CC1CCc2c(sc3nnn(Cc4ccccc4)c(=O)c23)C1 (stereo not drawn) | -19.7%
COc1ccc(Cn2c(SCc3ccc(C(=O)NCc4ccc(C)cc4)cc3)nc3cccnc32)cc1 | 2.4%
CCCCN(CC)CCNC(=O)C1CCCN(c2ncnc3onc(C)c23)C1 (stereo not drawn) | -1.9%
Cc1ccc(NC(=O)c2ccc(-n3c(C)nnc3C)cc2)cc1F | -5.0%
Cc1ccc(-c2c(C)n3c4c(=O)n(C)c(=O)n(C)c4nc3n2-c2cccc(O)c2)cc1 | -3.3%
COc1ccccc1N1CCN(C(CNC(=O)C(=O)NCCc2ccccc2)c2cccnc2)CC1 (stereo not drawn) | -0.2%
Cc1ccc(CNCc2ccccc2Cl)s1 | -27.8%
Cc1cc2c(cc1S(=O)(=O)C(C)CC(=O)NC1CCC(C)CC1)OCC(=O)N2 (stereo not drawn) | -1.0%
O=C(Nc1c(C(=O)O)oc2ccccc12)c1ccc(C(F)(F)F)cc1 | 1.1%
CCSc1nc2sc3c(c2c(=O)n1-c1ccc(C)cc1)CCCC3 | -5.8%
CCOc1ccc(Cn2c(CNS(=O)(=O)c3cccc(Cl)c3)nc3cccnc32)cc1 | -3.9%
Cc1ccccc1CNC(=O)CN1C(=O)CSc2ccc(S(=O)(=O)N(C)C)cc21 | -4.4%
Cc1ccc(Cl)cc1NC(=O)CCC(=O)N1CC(C)Sc2ccccc21 (stereo not drawn) | 0.0%
Cc1ccc(OCCCn2c(C3CC(=O)N(c4cccc(Cl)c4)C3)nc3ccccc32)c(C)c1 (stereo not drawn) | -7.7%
COc1ccc(CCNC(=O)c2ccc3c(c2)CCN3S(=O)(=O)c2ccccc2)cc1 | ?
COc1ccc(-c2cc3ccc(O)c(CN4CCCC(C)C4)c3oc2=O)cc1 (stereo not drawn) | -5.3%
CCc1cccc(NS(=O)(=O)c2ccc3c(c2)CC(C)N3C(=O)C2CC2)c1 (stereo not drawn) | 27.4%
